Screens (PubChem BioAssay)
KCNQ2 block – KCNQ2 channel blockers in CHO-K1 cells – cell-based, FluxOR thallium flux, B-score, primary screen (AID 2156); O88943; 20 min; hits give low values; only compounds with negative scores are shown here; some inactives read as strong as hits; B-score at 10 µM; 310,000 tested, 1.1% active;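 active means fluorescence ratio B-score at most minus 3 library SDs, with starting brightness B-score within 2 library SDs, cut at about -5.5 in these data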
Target sequence (O88943 whole entry, looked up): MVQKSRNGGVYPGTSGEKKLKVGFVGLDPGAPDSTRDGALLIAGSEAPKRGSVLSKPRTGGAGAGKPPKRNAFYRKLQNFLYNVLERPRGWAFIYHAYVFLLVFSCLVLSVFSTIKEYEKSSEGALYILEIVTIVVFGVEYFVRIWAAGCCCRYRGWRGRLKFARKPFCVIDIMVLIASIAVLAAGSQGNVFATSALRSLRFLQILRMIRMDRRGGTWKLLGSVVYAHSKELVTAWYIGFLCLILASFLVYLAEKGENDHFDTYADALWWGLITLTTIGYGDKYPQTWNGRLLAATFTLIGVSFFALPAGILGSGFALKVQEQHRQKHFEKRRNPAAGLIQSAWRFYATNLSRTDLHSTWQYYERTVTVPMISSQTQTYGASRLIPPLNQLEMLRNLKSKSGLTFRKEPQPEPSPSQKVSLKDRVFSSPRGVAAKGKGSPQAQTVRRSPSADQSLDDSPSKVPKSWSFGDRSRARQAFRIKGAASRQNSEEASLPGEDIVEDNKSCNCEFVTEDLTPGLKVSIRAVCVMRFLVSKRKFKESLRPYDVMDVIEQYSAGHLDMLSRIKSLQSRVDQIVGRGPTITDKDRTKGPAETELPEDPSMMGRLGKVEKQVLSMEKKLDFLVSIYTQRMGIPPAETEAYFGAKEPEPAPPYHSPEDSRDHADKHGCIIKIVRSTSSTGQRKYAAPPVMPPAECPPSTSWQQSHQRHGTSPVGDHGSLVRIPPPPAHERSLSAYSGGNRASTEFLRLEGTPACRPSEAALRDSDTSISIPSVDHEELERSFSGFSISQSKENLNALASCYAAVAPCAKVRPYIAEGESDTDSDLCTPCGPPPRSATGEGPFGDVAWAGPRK
KCNQ2 block baseline – second read-out of KCNQ2 block, no call of its own (marks repeat the call); B-score; measured here: initial fluorescence intensity artifact check;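 brightness before thallium and not channel activity; 0 = typical well and far values either way flag optical interference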
Starred values were filed as active, the others as inactive; i = inactive.

Fields: KCNQ2 block baseline | KCNQ2 block
[1] C=C(C)CSc1nnc(-c2cccc(Cl)c2)n1N
    1.6 | i
[2] COc1ccc(N(C(=O)CCl)C(C(=O)NCCc2ccccc2)c2cccs2)cc1 (configuration not stated)
    1.4 | i
[3] CC(=O)Nc1ccc(S(=O)(=O)NNC(=S)NCC2CCCO2)cc1 (configuration not stated)
    -0.97 | i
[4] CN(C)c1ccc(C2OC(=O)C(C)(C)C(=O)C2(C)C)cc1 (configuration not stated)
    -0.57 | i
[5] O=C1CSC(c2ccc([N+](=O)[O-])cc2)N1c1ccccc1 (configuration not stated)
    2.3 | i
[6] CC(C)OC(=O)CC1C(=O)NCCN1C(=S)NC(=O)c1ccccc1 (configuration not stated)
    -0.02 | i
[7] CSCCC(NC(=O)C12CC3CC(CC(C3)C1)C2)C(=O)OCC(=O)c1ccc(Cl)cc1 (configuration not stated)
    0.76 | i
[8] CCC(C)(C)n1nnnc1C(c1cccc(C#N)c1)N1CCN(c2cc(C)ccc2C)CC1 (configuration not stated)
    0.03* | -5.8*
[9] O=C(NCC1CCN(C(=O)c2ccc([N+](=O)[O-])cc2)CC1)C(=O)Nc1ccccc1
    1.6 | i
[10] CC1N(C)c2cc(NC(=O)c3ccco3)c(P(=O)(Nc3ccc([N+](=O)[O-])cc3)N3CCOCC3)cc2C1(C)C (configuration not stated)
    0.07 | i
[11] COc1ccccc1NC(=O)c1nn(C)c(C(=O)Nc2ccccc2OC)c1[N+](=O)[O-]
    0.86 | i
[12] Cc1ccc(NC(=O)CN2C(=O)NC(Cc3ccccc3)C2=O)c(Br)c1 (configuration not stated)
    0.62 | i
[13] Cc1ccc(NC(=O)c2sc(Cl)nc2-c2ccccc2)cc1C
    -0.11 | i
[14] Cc1ccc2nc(NC(=O)CN(C)S(=O)(=O)c3ccc(Br)s3)sc2c1
    -3.7 | i
[15] O=C(CCCn1cnc([N+](=O)[O-])n1)Nc1cccc(O)c1
    0.38 | i
[16] CCCS(=O)(=O)N1CCN(CC2CC3C=CC2C3)CC1 (configuration not stated)
    -0.14 | i
[17] Cc1ccc(C2C(C#N)=C3N=C(N)c4ccccc4N3C3=C2C(=O)CCC3)cc1 (configuration not stated)
    0.15 | i
[18] O=C(CN1CCC(NC(=O)c2ccccc2F)CC1)Nc1ccc2c(c1)OCCO2
    -0.74 | i
[19] CCn1c(=O)c(C)nn2c3ccccc3nc12
    -0.14 | i
[20] O=C(N/N=C/c1c[nH]c2ccccc12)c1ccc(Br)cc1
    1.5 | i
[21] CSc1ncccc1C(=O)OCC(=O)c1cc2ccccc2o1
    -0.07 | i
[22] CCCCc1ccc(NC(=O)CSc2nc3ncccc3[nH]2)cc1
    0.66 | i
[23] CC(c1ccccc1F)n1cc(C(=O)NCCc2ccco2)nn1 (configuration not stated)
    -0.1 | i
[24] Cc1ccc(C(C)n2cc(C(=O)NCc3ccccn3)nn2)cc1 (configuration not stated)
    -0.69 | i
[25] COc1ccc(C(=O)c2ccc(N(C)C)cc2)c(OC)c1
    0.23 | i
[26] Cc1cccn2c(=O)c(C=Nc3ccccc3)c(NCc3ccco3)nc12
    -1.6 | i
[27] O=C(COc1ccc(-c2nnco2)cc1)N1CCN(S(=O)(=O)c2ccc3ccccc3c2)CC1
    1.5 | i
[28] Cc1cccc(Nc2ncnc3onc(-c4cccc(Cl)c4)c23)c1C
    -0.04 | i
[29] O=C(c1cccc(Br)c1)N1CCN(C(=O)N2CCCCC2)CC1
    -0.85 | i
[30] CSc1ccc(CN2CCCC(N3CCN(c4ccccc4)CC3)C2)cc1 (configuration not stated)
    -0.29 | i

One compound at a time, as listed above. Order of screens: KCNQ2 block baseline, KCNQ2 block
`O=C(c1cccc(Br)c1)N1CCN(C(=O)N2CCCCC2)CC1` is listed as -0.85, i
`O=C(N/N=C/c1c[nH]c2ccccc12)c1ccc(Br)cc1` is listed as 1.5, i
`Cc1ccc2nc(NC(=O)CN(C)S(=O)(=O)c3ccc(Br)s3)sc2c1` is listed as -3.7, i
`CC(c1ccccc1F)n1cc(C(=O)NCCc2ccco2)nn1` (configuration not stated) is listed as -0.1, i
`Cc1ccc(C2C(C#N)=C3N=C(N)c4ccccc4N3C3=C2C(=O)CCC3)cc1` (configuration not stated) is listed as 0.15, i

The main list resumes; the 3 compounds before the break are reprinted first.
Fields: KCNQ2 block baseline | KCNQ2 block
[28] Cc1cccc(Nc2ncnc3onc(-c4cccc(Cl)c4)c23)c1C
    -0.04 | i
[29] O=C(c1cccc(Br)c1)N1CCN(C(=O)N2CCCCC2)CC1
    -0.85 | i
[30] CSc1ccc(CN2CCCC(N3CCN(c4ccccc4)CC3)C2)cc1 (configuration not stated)
    -0.29 | i
[31] O=C(NCc1ccccn1)C1CCN(S(=O)(=O)N2CCC3(CC2)OCCO3)CC1
    0.69 | i
[32] O=C(O)c1cc(S(=O)(=O)Nc2ccc(N3CCCCC3)cc2)ccc1Cl
    -0.87 | i
[33] CCN(CC(=O)Nc1ccc(NC(C)=O)cc1)C(=O)c1cc(-c2ccccc2)nn1-c1ccccc1
    3 | i
[34] COc1ccc(OC)c(NC(=O)c2ccc(CSc3nnc(C)s3)cc2)c1
    -1.5 | i
[35] c1ccc(-c2c(-c3ccccc3)n(Cc3ccco3)c3ncnc(NCCCn4ccnc4)c23)cc1
    1.4* | -11*
[36] Cc1ccc(C)c(N2CC(=O)N(c3cc(C)ccc3C)CC2=O)c1
    0.96 | i
[37] N/C(=N\OC(=O)COc1ccc([N+](=O)[O-])cc1)c1ccc(Br)cc1
    0.84 | i
[38] COn1c(-c2ccc(Cl)cc2)nc2ccc(Cl)cc21
    -0.02 | i
[39] COc1cccc(C(=O)NNC(=O)c2sccc2-n2cccc2)c1
    1.4 | i
[40] CN(CCCC1CCCC1)C(=O)c1cc(COc2c(F)cccc2F)on1
    -0.4 | i
[41] O=C(CCn1nnc2ccccc21)Nc1nnc(Cc2ccccc2)s1
    0.41 | i
[42] Cc1ccc(N=C2C(=S)N(c3ccc(C)cc3)C(=N)N2/N=C/c2ccc(Cl)cc2)cc1
    -1.7 | i
[43] COc1ccc(CCN2CNc3c(c(=O)n(C)c(=O)n3C)C2)cc1OC
    -0.7 | i
[44] CCCCn1c(N)c(N(CC)C(=O)c2cc3c(s2)CCCCC3)c(=O)[nH]c1=O
    -0.98 | i
[45] Cc1occc1C(=O)NNC(=O)c1ccccc1[N+](=O)[O-]
    0.1 | i
[46] COC(=O)c1c(-c2c(Cl)cccc2Cl)noc1C(=O)NN
    1.8 | i
[47] CCc1nnc(N/N=C/c2c(F)cccc2Cl)n1N
    1.2 | i
[48] Cc1ccnc(N2C(=O)c3ccccc3C2O)c1 (configuration not stated)
    -1.4 | i
[49] CCOC(=O)C1CCCN(C(=O)c2cc3c(C)nc4ccccc4c3o2)C1 (configuration not stated)
    0.43 | i
[50] CCOc1ccc(N(CC)C(=O)CCS(=O)(=O)c2cccc3nonc23)cc1
    -2.6 | i
[51] COc1ccc(NC(=O)COC(=O)CNC(=O)c2cc(OC)c(OC)c(OC)c2)cc1
    -0.36 | i
[52] CN(CC(=O)Nc1ccccc1C(F)(F)F)C(=O)CCc1nc2sc3c(c2c(=O)[nH]1)CCCC3
    0.49 | i
[53] COc1ccc(CCC(=O)Nc2cc(Cl)ccc2OC)cc1
    0.29 | i
[54] CCC(C(=O)NC1CCCCC1)N(CC1CCCO1)C(=O)CNS(=O)(=O)c1ccc(OC)cc1 (configuration not stated)
    -0.29 | i
[55] CNC(=O)NC(=O)COC(=O)CCCOc1ccc(OC)cc1
    4 | i
[56] COC(=O)c1sccc1NC(=S)N1CC(C)CC(C)C1 (configuration not stated)
    1.6 | i
[57] CCOC(=O)c1ccc(N=c2sc(C(=O)OC)cc(=O)n2Cc2ccc3c(c2)OCO3)cc1
    -0.02* | -5.9*
[58] COc1ccc(-c2nnn(-c3cc(Cl)cc(Cl)c3)c2N)cc1
    0.47 | i
[59] Cc1cc(C)cc(NC(=O)CCc2c(C)nn(-c3ccc(N4CCCCC4)nn3)c2C)c1
    0.4 | i
[60] CCOc1ccc(Nc2cc(=O)oc3ccccc23)cc1
    -0.71 | i
[61] Nc1cc(N)nc(SCC(=O)N2CCN(S(=O)(=O)c3ccccc3)CC2)n1
    -0.5 | i
[62] CCOc1ccc(S(=O)(=O)Nc2nc3ccccc3nc2-n2ccc(=NC(=O)c3cccs3)cc2)cc1
    0.7 | i
[63] Cc1ccc([N+](=O)[O-])c2c1C(N1CC(C)OC(C)C1)C(C)(C)O2 (configuration not stated)
    -1.2 | i
[64] O=C(NC1C(=O)NNC1c1ccccc1)c1ccccc1 (configuration not stated)
    -1.5 | i
[65] CSCCC(NC(=O)c1ccc(Cl)cc1Cl)C(=O)OC(C)C(=O)NCc1ccco1 (configuration not stated)
    -1.2 | i
[66] COCCCn1c(SCC(=O)N(C)C)nnc1-c1ccccc1
    -1.7 | i
[67] Cc1cccc(NC(=O)Cn2cccc2)c1
    -0.69 | i
[68] Cc1cc(C)c2c(=O)[nH]c(SCC(=O)N3CCCCC3)nc2n1
    1.2 | i
[69] O=C(CNC1CCCCCC1)Nc1ccccc1N1CCCCC1
    -1.5 | i
[70] Cc1ccc(CNS(=O)(=O)c2cn(C)cn2)cc1
    2.4 | i
[71] CC(=O)c1ccc(NC(=O)Nc2ccc([N+](=O)[O-])cc2)cc1
    -2.4 | i
[72] Cn1c(CNc2ccc(Cl)cc2)nnc1SCC#N
    0.04 | i
[73] O=C(Nc1ccccc1N1CCOCC1)c1cccc(F)c1
    -0.03 | i
[74] COc1ccc(C(=O)COC(=O)C(CCSC)NS(=O)(=O)c2ccc(Cl)cc2)cc1 (configuration not stated)
    -1.3 | i
[75] CCN1C(=O)/C(=C/c2cccs2)N(C)C1=S
    -0.08 | i
[76] O=C(COc1ccc(-c2nnco2)cc1)Nc1c(F)cccc1F
    -0.22 | i
[77] Cc1cc(C)n(-c2nc3ccccc3nc2N2CCN(C(=O)c3ccccc3)CC2)n1
    0.74 | i
[78] COc1cc(-c2noc(C3CCCN(C(=O)c4c(F)cccc4F)C3)n2)cc(OC)c1OC (configuration not stated)
    -0.35 | i
[79] COc1ccc(-c2nc(CSCC(=O)NC3CCCc4ccccc43)c(C)o2)cc1OC (configuration not stated)
    -1.4* | -10*
[80] O=C(c1ccccc1)c1ccc(OCC(O)CN2CCCCC2)cc1 (configuration not stated)
    1.4 | i
[81] O=C(COC(=O)c1nc(Cl)ccc1Cl)Nc1ccccc1OC(F)F
    -1.2 | i
[82] CN(C)C(CNC(=O)c1ccc(C(=O)c2ccccc2)cc1)c1ccccc1 (configuration not stated)
    1.5 | i
[83] CCS(=O)(=O)c1ccc(O)c(NC(=O)c2cc(OC)c(OC)c(OC)c2)c1
    -1.9 | i
[84] COc1cc(NC(=S)Nc2ccccn2)cc(OC)c1OC
    0.03 | i
[85] O=c1oc(-c2ccccc2NS(=O)(=O)c2ccc(Cl)cc2)nc2ccccc12
    0.22 | i
[86] CC1(C)CC(=O)C2=C(C1)NC(=O)NC2c1ccc([N+](=O)[O-])cc1 (configuration not stated)
    0.3 | i
[87] O=C(c1ccccc1Cl)N1CCC(c2nc3c(nnn3Cc3ccco3)c(=O)[nH]2)CC1
    0.48 | i
[88] CCc1ccc(N(C(=O)c2csnn2)C(C(=O)NCc2ccccc2)c2ccco2)cc1 (configuration not stated)
    -1.8 | i
[89] Cc1ccc(C(=O)CSc2nc(O)cc(=O)[nH]2)cc1C
    0.99 | i
[90] O=c1ccc(/C=C/c2ccccc2)nn1Cc1ccc(F)cc1
    1.1 | i

New compounds follow:
Fields: KCNQ2 block baseline | KCNQ2 block
[91] Cc1cc(NC(=O)CSc2nnc(C3CC3)n2Cc2ccccc2)no1
    0.6 | i
[92] CC(C)NC(=O)C1CCN(C2CCN(C(=O)c3scc4c3CCCC4)CC2)CC1
    -1.1 | i
[93] CSc1ccc(/C=C(/NC(=O)c2ccco2)C(=O)NCc2ccco2)cc1
    -0.02 | i
[94] CCOC(=O)Nc1nnc(-c2ccccc2OC)s1
    -0.38 | i
[95] COC(=O)C(Cc1ccccc1)NC(=O)CC(C)CC(=O)Nc1ccc(C)cc1 (configuration not stated)
    0.2 | i
[96] CCOc1ccc(C(=O)NC2CCN(CC(=O)NCc3cccs3)CC2)cc1
    1.8 | i
[97] CCOC(=O)CNC(=O)N1CCCC(CNS(=O)(=O)Cc2ccccc2)C1 (configuration not stated)
    0.61 | i
[98] CCOC(=O)c1c(NC(=O)COC)sc2c1CCCC2
    -0.44 | i
[99] Clc1ccc(N=NN2CCOCC2)cc1
    1.4 | i
[100] CCOc1ccc(-c2nc(CSc3nnc(N)s3)cs2)cc1OC
    0.02 | i
[101] CC(C)COc1ccc(CNC(=S)N/N=C/c2ccc([N+](=O)[O-])cc2)cc1
    1.2 | i
[102] O=C(Nc1ccccn1)C1CCN(C(=O)c2ccc(F)cc2)CC1
    1.1 | i
[103] CCOC(=O)CSc1nc2c(sc(=S)n2Cc2ccco2)c(=O)n1-c1ccccc1
    -2 | i
[104] COC(=O)c1ccccc1NC(=O)C1COc2ccccc2O1 (configuration not stated)
    0.94 | i
[105] CCOC(=O)c1cccc(NC(=O)CCNS(=O)(=O)c2cc(Br)cnc2N)c1
    -0.59 | i
[106] COc1cccc(NC(=O)Cn2c(=O)n(C)c(=O)c3sc4c(c32)COC(C)(C)C4)c1
    0.02 | i
[107] COc1ccc(CCNC(=O)c2cc3sccc3n2C)cc1OC
    -0.15 | i
[108] COCC(C)Nc1ncnc2c1cnn2-c1ccc(Cl)cc1 (configuration not stated)
    -0.33 | i
[109] COCCNC(=O)C1CCN(S(=O)(=O)c2c(C)noc2/C=C/c2cccs2)CC1
    -1 | i
[110] O=[N+]([O-])c1ccc(CSc2nnc(SCc3ccc(Cl)cc3)s2)cc1
    -1.1 | i
[111] Cc1ccccc1CSc1nnc(Cn2c(=O)sc3ccccc32)n1C
    0.57 | i
[112] COc1ccc(-c2c([C@H]3[C@H]4C=CC[C@@H](C)[C@@H]4C(=O)N3Cc3ccccc3)ccc3ccccc23)cc1OC
    -0.68 | i
[113] CC(C)(C)NC(=O)c1cc2c(ccc3ccccc32)oc1=O
    0.64 | i
[114] CO/C=C/C#CC1(O)CCN(C)CC1
    1 | i

Only part of the results is shown (hit frequency here may not be typical).
